YopH inh: YopH (Yersinia) phosphatase inhibition | fluorescence Ex485/Em525 | inhibition, %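 (about 10 µM by stock and volumes)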 | 0.16% of 140,000 active | AID 898;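 active = inhibition of 50% or more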;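 also: controls were vehicle for no effect and minimum signal wells for full effect; inactives centre near -20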
Mtb H37Rv: M. tuberculosis H37Rv growth inhibitors, H37Rv strain (AID 1626); M. tuberculosis H37Rv growth inhibition; higher % means a stronger effect; inhibition, % at 10 µM; hits with a dose series show IC50 in µM; 0.95% of 220,000 active;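 active = confirmed in a dose series; inconclusive = inhibition above 80% but not taken into the dose series; inactive = below 80% or under 30% at every dose of the series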;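 also: bacteria incubated seven days before Alamar blue readout; 0% = bacteria only wells and 100% = bacteria with antibiotic wells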
RecA intein inh: Mtb RecA intein splicing inhibition | P9WHJ3 | cell-free RecA intein splicing, fluorescence | inhibition, %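 (about 9 µM by stock and volumes)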 | 0.75% of 290,000 active; in the data active = inhibition above about 30%; inconclusive = no clear call, values can overlap the other calls;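 also: 0% = vehicle wells and 100% = reference inhibitor control wells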
Target sequence (P9WHJ3 whole entry, looked up): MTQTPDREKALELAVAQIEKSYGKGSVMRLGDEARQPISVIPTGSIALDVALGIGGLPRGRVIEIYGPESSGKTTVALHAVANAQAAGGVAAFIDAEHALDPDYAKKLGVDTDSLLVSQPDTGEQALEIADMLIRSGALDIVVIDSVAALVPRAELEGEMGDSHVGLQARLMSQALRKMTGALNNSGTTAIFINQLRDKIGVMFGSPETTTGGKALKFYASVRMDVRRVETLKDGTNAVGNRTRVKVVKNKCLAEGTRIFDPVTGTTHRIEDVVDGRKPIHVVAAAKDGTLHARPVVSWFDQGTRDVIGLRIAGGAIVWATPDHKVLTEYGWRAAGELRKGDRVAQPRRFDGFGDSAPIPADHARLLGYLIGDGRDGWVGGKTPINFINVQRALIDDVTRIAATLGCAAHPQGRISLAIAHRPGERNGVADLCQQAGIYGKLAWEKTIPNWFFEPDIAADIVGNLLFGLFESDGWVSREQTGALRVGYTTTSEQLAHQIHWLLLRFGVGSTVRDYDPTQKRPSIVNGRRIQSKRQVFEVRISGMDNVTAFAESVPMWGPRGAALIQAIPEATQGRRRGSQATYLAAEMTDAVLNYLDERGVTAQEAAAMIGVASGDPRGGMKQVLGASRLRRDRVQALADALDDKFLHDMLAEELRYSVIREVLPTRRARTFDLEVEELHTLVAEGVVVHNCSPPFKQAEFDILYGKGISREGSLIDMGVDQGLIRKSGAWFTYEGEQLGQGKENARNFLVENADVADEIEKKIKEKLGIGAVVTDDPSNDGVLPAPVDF
Mtb bLac sens: beta-lactam sensitization of Mtb H37Rv; M. tuberculosis H37Rv growth with meropenem, percent inhibition; hits of this screen are not shown here; inhibition, % at 25 µM; 0.27% of 330,000 active;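 active = about 74% or more and at least 40 points above the plate without the antibiotic, then above 30% in a dose series; inconclusive = first-round hits that could not be retested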;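 also: growth measured after seven days incubation then overnight dye step; 0% = bacteria only wells and 100% = bacteria with antibiotic; twin plates without the antibiotic show which effects depend on it; some results filed as inactive read as strong as hits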
Arbovirus anti: blocks arbovirus infection; 0.37% of 200,000 active; arbovirus infection cell-based antiviral screen; inhibition, % at 10 µM; AID 1251;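 active = inhibition from about 30%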;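 also: bluetongue infection of BSR cells; cell survival read as ATP light after 72 h; 0% = infected wells without compound and 100% = uninfected wells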
Numbers without * were called inactive; ? = inconclusive; . = no result given.

1: CCC(C)C(NC(=O)c1ccccc1NC(=O)c1ccccc1)C(=O)O (centres undefined)
2: N#Cc1ccc(S(=O)(=O)Nc2ccc3ccccc3n2)cc1
3: COc1ccc(C(=O)Nc2ccc3c4c(cccc24)CC3)cc1
4: Cc1onc(-c2ccccc2)c1CNC(=O)Nc1ccc(C(F)(F)F)cc1
5: CCOc1cc(C(=O)N2CCC3(CC2)OCCO3)cc(OCC)c1OCC
6: CN1CCC2(O)OCCCC2C1 (centres undefined)
7: CC(=O)Nc1ccc(S(=O)(=O)NC2Cc3ccccc3C2)cc1
8: CCC(=O)Nc1cccc(-c2cn3ccsc3n2)c1

assay / entry	1	2	3	4	5	6	7	8
YopH inh	.	.	-1.2	.	18.3	.	.	1.8
Mtb H37Rv	-16.1%	-2.0%	?	7.1%	-0.9%	0.0%	.	12.1%
RecA intein inh	-3.0	1.3	-2.0	0.5	0.7	3.4	0.0	-99.9
Mtb bLac sens	-5.0	-4.7	99.7	0.1	0.5	-8.0	-2.1	-1.6
Arbovirus anti	.	.	-1.4	.	-1.9	.	.	-3.1

9: CCC(=O)N1CCc2cc(Br)cc(S(=O)(=O)N3CCCCC3CC)c21 (centres undefined)
10: CS(=O)(=O)N1CCc2cc(C(=O)N3CCCCC3)ccc21
11: CCOc1ccc(/C=C2\CCC(C3CCCC3)C2=O)cc1OC (centres undefined)
12: CCOC(=O)N1CCN(C(=O)CSCC(=O)Nc2nc(-c3ccc(C)cc3)cs2)CC1
13: CC(=O)Nc1ccc(S(=O)(=O)NCC(C)NS(=O)(=O)c2ccc(NC(C)=O)cc2)cc1 (centres undefined)
14: O=C(N/N=C/c1cn(CC(=O)N2CCOCC2)c2ccccc12)c1cccnc1
15: Nc1ccc(S(=O)(=O)c2ccc(N)cc2)cc1
16: CC(/C=N/NC(=O)NC1CCCCC1)=C\c1ccccc1

assay / entry	9	10	11	12	13	14	15	16
YopH inh	.	12.2	.	-44.9	-29.3	.	-33.0	.
Mtb H37Rv	.	-1.8%	.	9.7%	-6.8%	-2.1%	-6.7%	4.9%
RecA intein inh	2.3	-3.2	3.4	-2.9	0.6	-2.2	-1.7	10.4
Mtb bLac sens	-2.2	1.5	9.3	-2.4	1.2	-10.6	19.6	6.8
Arbovirus anti	.	2.1	.	5.9	4.8	.	-2.2	4.3

17: CCN1CCN(c2cc(C)c3cc(NC(=S)N(C)Cc4ccccc4)ccc3n2)CC1
18: CC(=O)NC(Cc1cccc(C)c1)C(=O)NC1CCN(S(=O)(=O)c2ccccc2)CC1 (centres undefined)
19: COC(=O)CNC(=O)C1CCN(S(=O)(=O)c2cnc[nH]2)CC1
20: COc1ccc(C2=NOC(c3nnc(-c4ccccc4)o3)C2)cc1 (centres undefined)
21: Cc1ccc(CN2CC(C(=O)N(Cc3nnc(-c4ccccc4Cl)o3)C3CC3)CC2=O)cc1 (centres undefined)
22: C=CCN1C(=O)NC(=O)/C(=C/c2ccoc2)C1=O
23: CCCCC1=CC2=C(c3ccco3)C(=O)C(C)(OC(=O)c3ccc(OC)cc3)C(=O)C2=CN1C1CCCCC1 (centres undefined)
24: COc1ccc(OC)c(Cc2nnc(CCC(=O)N3CCCCC3c3nccs3)o2)c1 (centres undefined)

assay / entry	17	18	19	20	21	22	23	24
YopH inh	.	.	.	.	.	-22.5	.	.
Mtb H37Rv	.	.	.	1.5%	.	5.0%	-3.6%	1.0%
RecA intein inh	-1.8	2.6	0.7	1.1	0.0	-3.5	0.6	-3.8
Mtb bLac sens	5.8	1.5	1.0	-2.9	0.1	7.0	23.9	6.0
Arbovirus anti	.	.	.	.	.	5.6	.	3.9

25: COCCCNC(=O)c1cc(Sc2nnc(C)s2)nc2ccccc12
26: COc1ccc(OC)c(CN2CCN(C(=O)c3ccc(F)cc3)CC2)c1
27: C=CCn1c(SCC(=O)N2CCCCC2)nnc1-c1ccncc1
28: COc1cc(/C=C(\C#N)C(=O)NCC2CCCO2)cc(OC)c1OC (centres undefined)
29: COc1ccccc1CNS(=O)(=O)c1ccc(-n2cccn2)cc1
30: C/C(=N/NC(=O)CN1CCN(Cc2ccccc2Cl)CC1)c1cccs1
31: CCN(CC)S(=O)(=O)c1ccc(C)c(NC(=O)COC(=O)CN2C(=O)NC(C)(C)C2=O)c1
32: CNc1c([N+](=O)[O-])cnn1-c1ccccc1F

assay / entry	25	26	27	28	29	30	31	32
YopH inh	.	.	.	.	.	.	.	.
Mtb H37Rv	-6.3%	.	2.9%	2.4%	.	-5.2%	.	0.6%
RecA intein inh	-0.1	0.7	-1.0	-2.2	3.1	1.5	-1.5	-0.8
Mtb bLac sens	-0.7	2.5	0.6	4.0	-2.9	-0.9	-5.6	-2.9
Arbovirus anti	.	.	0.6	4.4	.	.	.	7.0

33: Cc1ccc(-n2c(O)c(/C=N/c3ncc(Br)cc3Br)c(=O)[nH]c2=O)cc1
34: CCn1c(C)c(C)c2cc(C(=O)NCCCN3CCCC3)ccc21
35: Cc1ccc(C2(C)NC(=O)N(CC(=O)NCc3cccc(Cl)c3)C2=O)cc1 (centres undefined)
36: CC(=O)Nc1ccccc1OCC(=O)N(Cc1ccccc1)C(C)C
37: NS(=O)(=O)c1ccc(-c2ccc(/C=N/NC(=O)c3ccccc3O)o2)cc1
38: O=C(O)c1cccc(Nc2ncnc3c2cnn3-c2ccccc2)c1
39: O=C(CN1CCc2ccccc2C1)NC1CCCC1
40: O=C1CC(c2ccccc2)CC2=C1C(c1ccccn1)Nc1ccccc1N2 (centres undefined)

assay / entry	33	34	35	36	37	38	39	40
YopH inh	.	.	.	-23.2	.	-36.9	.	-13.0
Mtb H37Rv	5.4%	.	.	-8.9%	-5.7%	4.8%	-13.6%	-6.4%
RecA intein inh	-5.7	1.2	1.8	-2.0	-2.5	-5.4	-1.3	-4.1
Mtb bLac sens	8.5	-0.2	-2.0	9.3	-0.8	1.6	-3.5	6.2
Arbovirus anti	10.6	.	.	0.9	.	4.8	-1.9	2.1

Some of these compounds in order of length of the SMILES, smallest number first.
39: O=C(CN1CCc2ccccc2C1)NC1CCCC1
38: O=C(O)c1cccc(Nc2ncnc3c2cnn3-c2ccccc2)c1
35: Cc1ccc(C2(C)NC(=O)N(CC(=O)NCc3cccc(Cl)c3)C2=O)cc1 (centres undefined)

assay / entry	39	38	35
YopH inh	.	-36.9	.
Mtb H37Rv	-13.6%	4.8%	.
RecA intein inh	-1.3	-5.4	1.8
Mtb bLac sens	-3.5	1.6	-2.0
Arbovirus anti	-1.9	4.8	.

Continuation:
41: COc1cc(/C=N/NC(=O)C(Cc2c[nH]c3ccccc23)NC(=O)OCC(C)C)cc([N+](=O)[O-])c1OCc1ccccc1 (centres undefined)
42: Cc1cccnc1NC(=O)c1ccc(S(=O)(=O)N2CCCCCC2)cc1
43: CCN(CC)CCNC(=O)Cn1c(C)cc2ccccc2c1=O
44: COc1ccc(OC)c(/C=N/NC(=O)c2[nH]ncc2Br)c1
45: CCCCCCCc1nn2c(=O)cc(O)nc2s1
46: COc1ccc(-c2nc(-c3ccccc3)c(-c3cccs3)[nH]2)cc1OC
47: CC(=O)c1ccc(N2CCN(S(=O)(=O)c3ccc4c(c3)NC(=O)CC(=O)N4)CC2)cc1
48: CSc1cccc(CNC(=O)C2CCC(=O)N(Cc3cccc(C(F)(F)F)c3)C2)c1 (centres undefined)

assay / entry	41	42	43	44	45	46	47	48
YopH inh	.	.	-19.7	.	-24.4	6.6	.	.
Mtb H37Rv	8.3%	.	-12.5%	-0.3%	-5.1%	-1.3%	.	.
RecA intein inh	3.3	-1.8	-0.1	.	0.2	19.5	-1.9	3.1
Mtb bLac sens	-2.5	2.4	-9.3	3.5	6.6	76.2	3.1	97.6
Arbovirus anti	6.1	.	1.3	.	15.2	-17.5	.	.

49: COCCNC(=O)C(=O)Nc1cc2c3c(c1)CCC(=O)N3CCC2
50: O=C1C(C2=NC(c3ccccn3)C3C(=O)N(c4ccc(Cl)cc4Cl)C(=O)C23)=C(O)c2ccccc21 (centres undefined)
51: O=C(c1ccc(-n2nc(C(F)(F)F)c3c2CCCC3)cc1)N1CCOCC1
52: O=C(C1CCN(S(=O)(=O)c2cccc3nsnc23)CC1)N1CCc2ccccc2C1
53: COc1cccc(N2CC(C)Cn3c2nc2c3c(=O)n(CCN3CCOCC3)c(=O)n2C)c1 (centres undefined)
54: CC(C)(C)NC1=CC(=O)OC12CCCCC2
55: O=C(Oc1ccc(F)cc1)N1CCOCC1
56: COc1cccc(CNCc2ccc(OC)cc2OC)c1

assay / entry	49	50	51	52	53	54	55	56
YopH inh	.	.	.	-48.1	-7.8	-43.3	.	.
Mtb H37Rv	.	.	4.9%	.	-3.6%	-1.2%	.	.
RecA intein inh	-1.3	-1.6	1.0	3.8	0.8	-2.1	-1.6	1.1
Mtb bLac sens	3.9	4.0	0.3	-3.3	3.3	-3.3	-6.2	5.1
Arbovirus anti	.	.	9.8	2.5	4.2	2.4	.	.

57: COc1ccc(NC(=O)Nc2nnc(CC(=O)NCc3ccccc3)s2)cc1
58: CCCCC(C(=O)NC1CCCC1)N(Cc1ccco1)C(=O)Cn1nnc(-c2ccc(F)cc2)n1 (centres undefined)
59: O=C(Cn1cc(C(F)(F)F)ccc1=O)N/N=C/c1cccc(Cl)c1Cl
60: COc1ccc(NC(=O)Cc2c[nH]c3ccccc23)cc1S(=O)(=O)N1CCCCC1
61: O=C(N/N=C/c1cccc2cccnc12)c1ccccc1O
62: Nc1ncnc2nc(SCCOc3ccc(Cl)cc3)[nH]c12
63: CC(C)CCN(CC(=O)NC(C)(C)C)C(=O)C(=O)Nc1ccc2c(c1)OCCO2
64: Cc1ccc2cccc(S(=O)(=O)N3CCN(c4cccc(Cl)c4)CC3)c2n1

assay / entry	57	58	59	60	61	62	63	64
YopH inh	.	6.5	-13.3	-34.2	.	-10.8	.	-12.2
Mtb H37Rv	-4.3%	-6.2%	-4.3%	-3.5%	?	6.7%	-4.1%	1.8%
RecA intein inh	1.5	4.7	2.3	4.0	-1.2	1.1	-0.4	11.3
Mtb bLac sens	-1.0	-16.5	10.3	-6.8	99.0	12.0	-0.6	-10.1
Arbovirus anti	-2.4	1.0	-7.0	10.1	.	-0.7	-0.7	-17.0

65: Cc1nn2c3ccccc3n(Cc3ccccc3)c2nc1=O
66: CC(C)Cc1nc2sc3c(c2c(=O)n1N)CC(C(C)C)OC3 (centres undefined)
67: COc1ccc(/C=C2/S/C(=N/S(=O)(=O)Cc3ccccc3)NC2=O)cc1OC
68: N#Cc1c(N2CCCC2)ccc(Br)c1Cl
69: O=C(Cn1cnc2c(oc3ccccc32)c1=O)N1CCN(c2ccccc2)CC1
70: Cc1ccc(C)c(S(=O)(=O)N2CCCOC2CNC(=O)C(=O)NCc2cccs2)c1 (centres undefined)
71: COc1ccc(C)cc1S(=O)(=O)NC1CCCCCC1
72: CCOC(=O)CSC1=C(C#N)C(c2ccccc2C)C2=C(CCCC2=O)N1 (centres undefined)

assay / entry	65	66	67	68	69	70	71	72
YopH inh	21.2	.	.	.	-1.6	.	.	-9.0
Mtb H37Rv	1.4%	3.7%	4.2%	1.8%	.	.	.	-3.9%
RecA intein inh	-0.8	-2.8	1.1	.	-0.7	6.4	0.0	-2.5
Mtb bLac sens	-6.4	-3.3	-0.6	4.2	-0.1	-17.9	3.1	-3.7
Arbovirus anti	-1.4	.	.	.	-1.2	.	.	1.9

Filtered by structure, the entries above containing a nitro group on carbon.
32: CNc1c([N+](=O)[O-])cnn1-c1ccccc1F
41: COc1cc(/C=N/NC(=O)C(Cc2c[nH]c3ccccc23)NC(=O)OCC(C)C)cc([N+](=O)[O-])c1OCc1ccccc1 (centres undefined)

assay / entry	32	41
YopH inh	.	.
Mtb H37Rv	0.6%	8.3%
RecA intein inh	-0.8	3.3
Mtb bLac sens	-2.9	-2.5
Arbovirus anti	7.0	6.1

Further entries.
73: CCc1noc(C)c1C(=O)N(C)CC(=O)Nc1ccc(Br)cc1C
74: CC(=O)N1CCN(c2ccc(NC(=O)c3cccc(C)c3)cc2)CC1
75: CCOc1ccc(/C=N/NC(=O)c2csc(C)c2C)c(OCC)c1
76: CC(C)Sc1nnc([C@@H]2CCCN2C(=O)OC(C)(C)C)o1

assay / entry	73	74	75	76
YopH inh	.	.	-13.8	-28.1
Mtb H37Rv	.	.	10.3%	-10.6%
RecA intein inh	1.1	8.3	-5.1	-4.4
Mtb bLac sens	-9.3	-0.8	1.7	-3.0
Arbovirus anti	.	.	-0.3	-2.6

Screening results as filed in PubChem BioAssay.

Not all compounds are listed, so the mix of outcomes need not match the whole.
